GLA inh pH 4.5: inhibitors of human alpha-galactosidase A at pH 4.5; P06280; purified enzyme, 4-MU-alpha-Gal fluorescence, pH 4.5; activity change, negative = inhibition, % at 105 µM; 230,000 tested, under 10 active; AID 1467; inconclusive = small, poorly fitted or top-dose-only inhibition, or a rising curve; inactive = flat fitted curve, though single readings scatter; no compound was filed as active;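 also: 0% = full activity with enzyme and -100% = basal without enzyme; dose as in the result columns while the protocol names 77 µM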
miR-21 reporter: raises the signal of a miR-21 reporter; HeLa miR-21 FLuc reporter, luciferase, 48 h; Potency, µM (doses to about 38.3 µM), for inactives: top-dose reporter change, positive = more light; 340,000 tested, under 10 active; AID 2288; active = well fitted rising curve with a large enough effect; inconclusive = small, poorly fitted or top-dose-only effect; inactive = no such curve, though single readings can be large or run the other way;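 also: % of control where 0% means no effect; miR-21 action dims this reporter so a rising signal means less miR-21 action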
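Using DMEM plus 10% FBS, HeLa miR-21-FLuc cells are incubated with test compounds (final up to about 40uM) for 48 hours; firefly luciferase signal is then imaged following reagent-mediated lysis.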
Rango-impB inh: prevents formation of the Rango-importin beta complex; Q14974; Rango CFP/YFP FRET sensor + importin beta, 45 min; Potency, µM (titrated, usually from 92.2 µM), for inactives: at the highest dose inhibition of complex formation; 0.031% of 340,000 active; AID 540263; active = rising FRET ratio curve, often small or poorly fitted; inconclusive = mostly compound fluorescence or quenching in the first reads; inactive = flat curves in all reads;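 also: potency is read from the fitted curve at half-maximal effect; 0% = DMSO wells and 100% = buffer wells lacking importin beta; nearly all actives have a fitted effect of over 15% in size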
Target sequence (Q14974 whole entry, looked up): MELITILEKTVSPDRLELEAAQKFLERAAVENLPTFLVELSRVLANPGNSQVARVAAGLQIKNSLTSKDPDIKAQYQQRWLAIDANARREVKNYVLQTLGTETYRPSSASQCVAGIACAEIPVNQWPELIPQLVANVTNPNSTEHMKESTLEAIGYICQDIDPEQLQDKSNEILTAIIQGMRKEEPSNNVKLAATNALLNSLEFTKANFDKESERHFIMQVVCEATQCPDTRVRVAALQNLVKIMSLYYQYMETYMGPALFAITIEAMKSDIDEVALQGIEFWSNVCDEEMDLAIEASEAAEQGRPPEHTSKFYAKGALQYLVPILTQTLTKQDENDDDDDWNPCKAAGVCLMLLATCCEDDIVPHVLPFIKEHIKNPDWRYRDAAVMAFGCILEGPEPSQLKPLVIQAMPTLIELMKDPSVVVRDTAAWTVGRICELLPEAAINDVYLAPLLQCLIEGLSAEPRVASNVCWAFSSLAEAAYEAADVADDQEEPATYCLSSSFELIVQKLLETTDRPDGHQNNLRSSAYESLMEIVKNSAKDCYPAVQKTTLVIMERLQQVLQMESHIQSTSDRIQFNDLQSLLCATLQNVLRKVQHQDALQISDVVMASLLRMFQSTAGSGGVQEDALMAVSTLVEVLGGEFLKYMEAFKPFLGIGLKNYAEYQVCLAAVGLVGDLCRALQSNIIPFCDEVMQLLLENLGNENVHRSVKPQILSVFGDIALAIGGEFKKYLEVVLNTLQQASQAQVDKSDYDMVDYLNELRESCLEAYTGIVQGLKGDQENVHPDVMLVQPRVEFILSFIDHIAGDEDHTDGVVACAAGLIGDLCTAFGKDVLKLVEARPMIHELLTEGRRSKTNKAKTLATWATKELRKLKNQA
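Inhibition scored from the CFP 486 nm/YFP 530 nm FRET ratio 45 min after adding 0.125 microM importin beta to 50 nM Rango biosensor preincubated 5 min with compound (room temperature, PBS with DTT, Tween-20, BSA). No-importin wells as positive control.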
Rango release inh: prevents RanGTP from dissociating the Rango-importin beta complex; Biochemical FRET Rango-importin beta, RanGTP-induced dissociation; Potency, µM (titrated, usually from 46.1 µM), for the others: top-dose activity change, negative = inhibition; 0.071% of 340,000 active; AID 540253; active means falling FRET ratio curve, often poorly fitted, with flat reads before Ran was added; inconclusive means other falling curves, or compound fluorescence or quenching; inactive means flat or rising ratio curve;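 also: potency is read from the fitted curve at half-maximal effect; % of control where 0% means no effect; nearly all actives have a fitted effect of over 45% in size; -100% = wells without RanGTP and RCC1; the record marks most hits as doubtful in a second field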
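Rango/importin beta premix (0.1/0.25 uM final), PBS + 1 mM DTT + 0.02% Tween-20 + 0.1% BSA; cpd 5 min RT; FRET pre-read; + RanGTP-RCC1 (0.6 uM Ran, 2 mM GTP, 0.2 uM RCC1); 45 min RT; FRET post-read, ex 430, em 486/530 nm.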
Numbers without * were called inactive; u = inconclusive; x = not tested or not shown; & = joins results of further samples.

Rango release inh	Compound	GLA inh pH 4.5	Rango-impB inh	miR-21 reporter
-3%	CCOc1ncccc1C(=O)OCC(=O)c1cccs1	2	5.5%	-4%
9%	COc1ccc(C(O)c2coc3ccc(O)c(CN(C)C)c23)cc1 (configuration not stated)	-2	4.9%	-1%
-13%	Cc1ccc(OCCNC(=O)c2cc(-n3cnnc3)ccc2Cl)cc1C	-17	-1.9%	-3%
2%	NC(=O)c1ccc2c(=O)n3c(-c4cc(Cl)c(N)c(Cl)c4)csc3nc2c1	9	0.0%	21%
2%	CCN1C(=O)[C@H]2[C@@H](c3ccc(-c4cc(C(C)=O)cs4)cc3)N3CCCC[C@@]3(C(=O)OC)[C@H]2C1=O	x	1.5%	x
25%	CC(C)(C)NCC(O)Cn1cc(C=O)c2ccccc21 (configuration not stated)	-5	-3.0%	-10%
u	COc1cc(/C=C2/S/C(=N/S(=O)(=O)c3ccccc3)NC2=O)c([N+](=O)[O-])cc1OC	2	u	-40%
19%	OCC[C@@H]1C[C@H](O)[C@@H](O)[C@@]2(Cc3ccccc3O2)O1	x	-0.9%	0%
-8%	N#CC1=C(N)c2ccccc2CC12CCCCC2	5	1.2%	8%
21%	Cc1ccc(S(=O)(=O)N2C[C@@H]3[C@H]4CC[C@H](C4)[C@@H]3[C@@H](C)C2CC(=O)c2ccccc2)cc1 (some centres not stated)	x	0.0%	x
-4%	CCc1nc2ccccc2n(CC)c1=O	-1	0.0%	-5%
5%	C=CC[C@H](CC(=O)NCCO)C(=O)N[C@@H](COC(=O)[C@@H](CC=C)Cc1ccc(F)cc1)Cc1c[nH]c2ccccc12	x	0.2%	x
-21%	CCc1ccc(NC(=O)Cn2c(=O)oc3cc(S(=O)(=O)N4CCOCC4)ccc32)cc1	-14	-5.1%	10%
7%	CCC(=O)Nc1ccc(C(=O)OCc2ccc(Cl)c(Cl)c2)cc1	5	-0.1%	-12%
-6%	O=C(c1ccccc1)N1CCN=C1c1ccccc1	1	-0.5%	-5%
1%	Cc1cc(Cl)ccc1OCCCC(=O)NN	0	-1.8%	17%
-4%	CCOc1cc(NC(=S)Nc2ccccc2)c(OCC)cc1NC(=O)c1ccc(OC)cc1	-6	1.0%	6%
0%	O=C(Nc1nnc(-c2cccs2)s1)C1CC1	1	0.1%	-15%
-6%	CC(C)CCN(C)C1CCN(S(=O)(=O)c2cccc(C(F)(F)F)c2)CC1	-23	4.2%	-9%
0%	O=C(CCc1ccccc1)N=C1SC2CS(=O)(=O)CC2N1Cc1ccc(F)cc1 (configuration not stated)	x	1.1%	0%
0%	O=C1CSC(=Nc2cccc(C(=O)O)c2)N1	x	2.2%	-3%
24%	CCN(CC)S(=O)(=O)c1ccc(C(=O)NN(C)C2=NS(=O)(=O)c3ccccc32)cc1	x	-1.8%	2%
-2%	CCN(CC(=O)Nc1ccccc1C(F)(F)F)C(=O)c1ccccc1SCC(=O)N1CCCC1	x	-3.7%	x
5%	CC(=O)c1cccc(Nc2c([N+](=O)[O-])c(=O)oc3ccccc23)c1	1	1.6%	0%
7%	CCOC(=O)C1CN(S(=O)(=O)c2cccs2)c2ccc(CC(=O)OC)cc2O1 (configuration not stated)	x	-1.8%	2%
-9%	CCN(CC)S(=O)(=O)c1ccc2nnn(OCC(=O)Nc3cccc(C#N)c3)c2c1	2	-1.4%	7%
-15%	CCOC(=O)CSc1nnc(CNC(=O)c2ccc(OC)cc2)n1-c1ccc(OC)cc1	1	-3.7%	-3%
0%	CCCCCN1C2=NCCN2c2ccccc21	-22	-1.0%	-7%
6%	CCOC(=O)N1CCN(C(=O)c2ccccc2SCC(=O)NCC2CCCCC2)CC1	x	1.9%	x
-3%	CCOC(=O)C(C)Oc1ccsc1C(=O)OC (configuration not stated)	-8	-0.7%	0%
-18%	O=C(CNS(=O)(=O)c1ccc(C(=O)N2CCCCC2)cc1)N1CCCCC1	8	-4.3%	1%
u	Cc1cccn2c(=O)c3cc(C#N)c(=NC(=O)c4cccs4)n(CCCOC(C)C)c3nc12	4	u	8%
-9%	Cn1nc(C(F)(F)F)c2cc(NC(=O)OCc3ccc(C(C)(C)C)cc3)sc21	6	4.2%	-3%
0%	CCOCCCn1c(=S)[nH]c2cc(C(=O)NCCc3ccccc3)ccc2c1=O	x	1.1%	-14%
-8%	CCNC(=S)N1CCN(c2nc(CC)nc3sc4c(c23)CCCC4)CC1	x	0.0%	21%
-11%	COc1ccc(S(=O)(=O)N2CCN(Cc3cc(OC)c(O)c(OC)c3)CC2)cc1	x	1.8%	0%
-23%	C=CCn1c(-c2ccc(OC)cc2)nc2nc3ccccc3nc21	u	-1.9%	-27%
1%	Cc1cc(F)ccc1S(=O)(=O)N1CCCOC1CNC(=O)C(=O)NCc1ccccn1 (configuration not stated)	x	-1.1%	-4%
-1%	O=C(NCC(c1ccco1)N1CCCCC1)c1ccc(COc2ccccc2)cc1 (configuration not stated)	x	-4.8%	x
-12%	COc1ccc(N2C(=O)C3CCCN3C2c2cccs2)cc1 (configuration not stated)	1	-2.9%	-1%
-9%	CCOC(=O)CN(C(=O)CSc1nnc(COc2ccc(OC)cc2)n1C)c1ccccc1	-4	-0.8%	0%
10%	CN(CC(=O)Nc1ccccc1Cl)C(=O)CCNC(=O)Nc1ccccc1	x	-1.6%	x
4%	COc1ccc(CC(O)COS(N)(=O)=O)cc1 (configuration not stated)	x	4.3%	-2%
5%	COc1ccc(Cc2nc3ccc(C(=O)N(C)CCO)cc3o2)cc1	x	-3.2%	-3%
14%	CN(CC(=O)Nc1ccc(Cl)c(C(F)(F)F)c1)C(=O)c1cn2ccccc2n1	x	-0.8%	x
-30%	Cc1cc(NC(=O)Nc2cc(Cl)ccc2C)no1	1	3.3%	-6%
8%	CC(C)n1c(CNC(=O)c2ccccc2F)nnc1SCC(=O)c1ccc(F)cc1	x	1.4%	x
7%	COc1ccc(Cl)cc1S(=O)(=O)N1CCCc2ccccc21	x	1.3%	-2%
u	O=C(O)CNS(=O)(=O)c1ccc2c3c(cccc13)C(=O)N2	x	u	2%
-3%	CCN1CCCC1Cn1cnc2c([nH]c3cc(OC)ccc32)c1=O (configuration not stated)	-1	3.6%	-7%
-5%	CC1CN=C(c2cccn2Cc2ccc(F)cc2Cl)O1 (configuration not stated)	-2	-1.8%	-3%
-23%	Cc1cccnc1NC(=O)c1ccc2nc(N)sc2c1	1	u	-20%
0%	Cc1nnc2c3ccccc3c(Cl)nn12	4	0.1%	-4%
10%	O=C(C1CCN(S(=O)(=O)c2ccc(-n3cnnn3)cc2)CC1)N1CCN(c2ccccc2)CC1	-6	-2.2%	-6%
21%	O=C(c1cc(-c2ccccc2)nc2ccccc12)N1CCCC1	x	-0.6%	-9%
-6%	COc1ccc(C(CC(=O)Nc2cc(OC)cc(OC)c2)n2cccc2)cc1 (configuration not stated)	6	-0.2%	-7%

New compounds follow.
Rango release inh	Compound	GLA inh pH 4.5	Rango-impB inh	miR-21 reporter
4%	Cc1cc(C)n(-c2cccc(CN(C)Cc3nc(-c4cnccn4)no3)c2)n1	-30	1.2%	0%
-5%	C=CCn1c(N2CCCC2)nc2c1c(=O)[nH]c(=O)n2C	-3	-1.9%	-5%
-10%	CC1CC(C)CN(C(=O)CCn2c(=O)oc3ccccc32)C1 (configuration not stated)	x	10%	0%
13%	CCC1CCCCN1C(=S)NC(=O)c1cc(Br)ccc1Cl (configuration not stated)	x	18%	x
-4%	Cc1nc2c(C(=O)N3CCOCC3)cnn2c(C)c1Cc1ccc(Cl)cc1	-1	1.2%	-29%
2%	COC(=O)c1c(NC(=O)c2cccnc2)sc(C)c1C	0	2.4%	4%
0%	Cc1csc2nc(=O)c3ccccc3n12	-8	u	-5%
1%	CCN(CC(=O)Nc1ccc(NC(C)=O)cc1)C(=O)CCCc1c[nH]c2ccccc12	x	-3.4%	x
-3%	Cc1cccc(N/C(N)=N/c2nc(C(F)(F)F)cc(=O)[nH]2)c1C	8	0.8%	3%
9%	COc1ccccc1C(CNC(=O)c1cccc(S(=O)(=O)Nc2ccc(F)cc2)c1)N1CCCC1 (configuration not stated)	x	-3.4%	x
20%	CCC(=O)N(CCc1ccccc1)Cc1cc2ccc(OC)cc2[nH]c1=O	x	-1.5%	5%
-1%	COc1ccc(C(=O)NNC(=S)NC(=O)c2cc(-c3ccccc3)nc3ccccc23)cc1	-1	-1.1%	0%
-1%	Cc1ccc(NC(=O)C2C3CC4OC(=O)C2C4C3)cc1Cl (configuration not stated)	0	-0.6%	0%
6%	Cc1cc(C)n(-c2ccc(S(N)(=O)=O)cc2[N+](=O)[O-])n1	3	0.9%	2%
25%	ON/C=N/C(=S)Nc1ncc(C(F)(F)F)cc1Cl	-4	0.0%	-35%
-3%	O=S(=O)(Nc1ccc(Cl)cn1)c1ccc(F)cc1	x	0.6%	0%
-15%	O=C(O)CCn1c(C(=O)O)cc2sccc21	5	-4.9%	0%
-19%	Cc1ccccc1Cn1c(C(=O)OC(C)C)cc2c1ccn2C	2	-6.4%	5%
u	CCn1c(-c2ccccc2)c[nH]c1=S	-15	1.2%	8%
6%	Cc1ccc(Cn2nnc3c(=O)[nH]c(C4CCN(S(=O)(=O)c5ccccc5)CC4)nc32)cc1	2	-1.7%	1%
0%	COc1ccc2[nH]cc(CCN3C(=O)c4ccc(C(=O)O)cc4C3=O)c2c1	x	-1.0%	-39%
8%	CC1(C)CC(=O)C=C(NCC2CCCO2)C1 (configuration not stated)	-1	-1.0%	4%
8%	C/C(CC(=O)Nc1ccc2c(c1)OCCO2)=N\NC(=O)COc1cccc(C)c1	x	4.3%	-8%
u	COc1cccc(/C=N/n2cnc3ccccc32)c1OC	-2	u	-52%

Three structures already listed, arranged by number of heavy atoms, smallest number first:
Rango release inh	Compound	GLA inh pH 4.5	Rango-impB inh	miR-21 reporter
u	COc1cccc(/C=N/n2cnc3ccccc32)c1OC	-2	u	-52%
8%	C/C(CC(=O)Nc1ccc2c(c1)OCCO2)=N\NC(=O)COc1cccc(C)c1	x	4.3%	-8%
6%	Cc1ccc(Cn2nnc3c(=O)[nH]c(C4CCN(S(=O)(=O)c5ccccc5)CC4)nc32)cc1	2	-1.7%	1%

Continued.
Rango release inh	Compound	GLA inh pH 4.5	Rango-impB inh	miR-21 reporter
-26%	O=S(=O)(Nc1ccc2cn[nH]c2c1)c1ccc(Cl)cc1	x	-0.4%	5%
2%	O=C(Nc1ccc(F)cc1)c1cc(S(=O)(=O)Nc2ccc(F)cc2)cs1	5	-0.7%	23%
-6%	O=C1C2C3C=CC(C3)C2C(=O)N1CNc1ccccn1 (configuration not stated)	2	u	0%
10%	O=Cc1ccc(Oc2nc(Cl)ncc2F)cc1	x	-0.8%	3%
0%	Cc1ccc2c(c1)[nH]c1c(=O)n(Cc3ccco3)cnc12	-7	-4.0%	-33%
10%	CC(Oc1ccc(Cl)cc1)C(=O)Nc1ccc(S(=O)(=O)Nc2nccs2)cc1 (configuration not stated)	x	-0.7%	1%
7%	CC1CCC2C(=O)N(c3ccc(NC4CCCCC4)c([N+](=O)[O-])c3)C(=O)C2C1 (configuration not stated)	-2	2.4%	-1%
x	COc1ccc2c(c1)O[C@H](c1ccc3c(c1)OCO3)[C@@H](OC(=O)N[C@H](C)C1CCCCC1)C2=O	-1&-8	x	-9%

Some of the entries so far, tab-delimited.
molecule	Rango release inh	GLA inh pH 4.5	Rango-impB inh	miR-21 reporter
COc1ccc2[nH]cc(CCN3C(=O)c4ccc(C(=O)O)cc4C3=O)c2c1	0%	x	-1.0%	-39%
CC1(C)CC(=O)C=C(NCC2CCCO2)C1 (configuration not stated)	8%	-1	-1.0%	4%
C/C(CC(=O)Nc1ccc2c(c1)OCCO2)=N\NC(=O)COc1cccc(C)c1	8%	x	4.3%	-8%

Other results:
Rango release inh	Compound	GLA inh pH 4.5	Rango-impB inh	miR-21 reporter
0%	CC(CCc1ccccc1)NC(=O)c1ccc(Cl)nc1 (configuration not stated)	-6	0.1%	-4%
1%	Cc1cccc(Cl)c1OCCCn1ccnc1	x	0.2%	-16%
3%	CCCc1nnc(SCC(=O)N2C(C)CCCC2C)n1CC1CCCO1 (configuration not stated)	9	1.4%	-3%
1%	Nn1c(N2CCCCC2)nc2ccccc21	0	4.1%	-18%
x	O=C(O)CC12CSc3[nH]c(=O)sc3C1c1ccccc1OC2=O (configuration not stated)	-1	x	-2%

Not all compounds are listed. The share of hits here may be higher or lower than overall.
